# Source: PubChem BioAssay (several laboratories)
# PKD1 inh: inhibitors of human PKD1 kinase. Q15139. PKD1 kinase fluorescence polarization assay. inhibition, %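 (about 10 µM by stock and volumes)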. 200,000 compounds, 0.056% hits. AID 797;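 active = inhibition of 50% or more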;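 note: controls were vehicle for no effect and a reference inhibitor for full effect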
# RGS16-Gao HTS: modulates binding between human RGS16 and Galphao | bead-based flow cytometry RGS16-Galphao binding, fluorescence; actives lie on both sides | AID 1441 | 220,000 compounds, 0.38% hits | binding response (% of control), % at 10 µM | O15492+P09471;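 active = below 25% or above 175%, edge rows of some plates excepted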;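 note: Galphao activated by GDP with aluminum fluoride before binding; 100% = wells without compound and 0% = beads without RGS; some results beyond the cut were filed as inactive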
# Target sequence (O15492 whole entry, looked up): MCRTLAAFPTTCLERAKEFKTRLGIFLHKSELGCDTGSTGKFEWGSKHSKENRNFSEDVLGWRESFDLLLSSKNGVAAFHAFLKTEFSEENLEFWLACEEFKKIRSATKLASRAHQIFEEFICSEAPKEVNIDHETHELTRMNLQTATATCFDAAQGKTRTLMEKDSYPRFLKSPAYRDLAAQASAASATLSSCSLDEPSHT
# Target sequence (P09471 whole entry, looked up): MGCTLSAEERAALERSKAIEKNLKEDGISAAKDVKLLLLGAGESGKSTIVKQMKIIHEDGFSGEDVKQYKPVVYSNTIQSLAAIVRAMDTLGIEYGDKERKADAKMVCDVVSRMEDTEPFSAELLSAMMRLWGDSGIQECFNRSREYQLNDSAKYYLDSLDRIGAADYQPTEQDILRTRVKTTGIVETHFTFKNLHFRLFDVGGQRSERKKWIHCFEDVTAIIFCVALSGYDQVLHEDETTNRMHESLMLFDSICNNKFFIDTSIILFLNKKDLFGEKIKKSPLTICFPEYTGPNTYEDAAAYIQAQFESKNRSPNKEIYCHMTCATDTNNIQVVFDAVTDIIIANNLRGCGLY
# GALR2 ag: agonists of human galanin receptor 2 (GALR2). O43603. GALR2-expressing cells, agonist activation read-out. activation, %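 (tested at 5 µM)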. 140,000 compounds, 0.48% hits;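 active = above mean plus 3 SD of all compounds, about 5% in these data, not always enough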;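 note: 0% = vehicle buffer wells and 100% = reference agonist at full effect; tested in CHO reporter cells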
# Target sequence (O43603 whole entry, looked up): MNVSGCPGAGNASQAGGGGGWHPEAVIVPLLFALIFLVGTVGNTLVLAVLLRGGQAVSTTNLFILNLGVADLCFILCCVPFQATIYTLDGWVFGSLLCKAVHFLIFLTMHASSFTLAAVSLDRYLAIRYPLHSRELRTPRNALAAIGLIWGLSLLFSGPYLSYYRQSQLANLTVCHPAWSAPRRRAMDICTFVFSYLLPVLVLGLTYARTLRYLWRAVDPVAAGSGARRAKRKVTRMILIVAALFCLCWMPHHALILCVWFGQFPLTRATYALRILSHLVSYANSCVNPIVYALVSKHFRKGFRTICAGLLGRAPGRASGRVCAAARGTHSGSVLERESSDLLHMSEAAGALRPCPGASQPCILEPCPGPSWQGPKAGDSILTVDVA
# HSV augment: HSV replication enhancement | maximum fold increase | HSV replication augmentation in cells, fold increase | 220,000 compounds, 0.005% hits;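 active = peak rise of 1.5-fold or more in the series; tested in PC3 cells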;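 note: first round at 10 µM; read as green reporter fluorescence; hits show the peak of a series up to 25 µM; 1 = signal of infected wells without compound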
# Insulin prom inh: TRM-6 insulin promoter activity inhibition. TRM-6 cells (human fetal islet line), insulin promoter-eGFP reporter, imaging; reporter expression induced with tamoxifen. 130,000 compounds, 0.9% hits. inhibition, % at 2 µM;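 active = inhibition above the mean plus 3 SD, with well images judged a real hit on visual review, cut at about 60% in these data, passing the limit was not always enough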
# Insulin prom inh cell count: second read-out of Insulin prom inh, no call of its own (marks repeat the call); normalized cell count, %; measured here: cell count, toxicity; reference of the scale not given here;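 cells exposed to compound for 48 h; stained nuclei by imaging scaled within each plate; lower means fewer cells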
# HSV augment primary fold: recorded beside HSV augment, whose call it bears; fold increase; compound at 10 µM; measured here: primary screen fold increase 10 uM; tested in PC3 cells;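 GFP signal in the first replicate; 1 = infected wells without compound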
# Numbers without * were called inactive; i = inactive; · = no result given.
SMILES,PKD1 inh,RGS16-Gao HTS,GALR2 ag,HSV augment,HSV augment primary fold,Insulin prom inh,Insulin prom inh cell count
CC(=O)Nc1ccc(S(=O)(=O)Nc2ccc3c(c2)C(=O)OC3)cc1,3,91,·,i,1.2,-6,117
Cc1cc(C)nc(N(C#N)CCOc2ccc(Cl)cc2)n1,-7,54,-2.5,i,0.91,-26,117
Cc1c(C(=O)NCCCN2CCOCC2)oc2c1C1(CCC2)SCCS1,-11,109,0.9,i,0.92,-24,86
N/C(=N\c1nc(C(F)(F)F)cc(=O)[nH]1)Nc1ccc(Cl)cc1,3,98,0.7,i,0.88,·,·
COc1cc2nc(SCC(=O)NCCc3ccccc3)n(Cc3ccco3)c(=O)c2cc1OC,-21,84,-1.0,i,1.1,12,95
CN1C(=O)c2ccc(C(=O)NCc3ccc4c(c3)OCO4)cc2C1=O,-9,101,-0.8,i,0.98,43,66
CCOC(=O)N1CCN(C(=O)C(=O)NN)CC1,-6,110,·,i,0.89,·,·
COc1ccc2[nH]c(C(=O)N3CCCN(Cc4ccc(F)cc4)CC3)cc2c1,·,96,·,i,0.92,·,·
C/C(CC(=O)Nc1ccccc1F)=N\NC(=O)Cc1ccc(Cl)cc1,-4,91,·,i,0.98,20,113
Cc1nn(C)c(Cl)c1NC(=O)OCc1ccc(F)cc1,2,102,-1.6,i,1,23,136
Cc1ccc(CCN2CC(C(=O)NCCCOC(C)C)CC2=O)cc1 (stereo unspecified),-2,100,-1.0,i,0.85,33,95
CCn1c2ccccc2c2cc(NC(=O)c3ccc(=O)oc3)ccc21,·,100,·,i,0.95,·,·
O=C(Oc1ccc(-c2ccccc2)cc1)N1CCOCC1,-6,103,-0.4,i,0.96,8,277
O=C(NC(=S)Nc1ccc(S(=O)(=O)N2CCCC2)cc1)c1cccs1,-7,122,0.2,i,1.1,-7,107
Cc1ccc(NC(C)C(=O)N/N=C/c2c[nH]c3ccccc23)cc1 (stereo unspecified),-11,102,-2.2,i,0.99,67,72
CC(NC(=O)CNC(=S)N(Cc1ccccc1)Cc1cccnc1)c1ccccc1 (stereo unspecified),7,97,·,i,0.91,-17,133
Cc1cc(C(F)F)n2ncc(C(=O)NCc3ccccc3C(F)(F)F)c2n1,-4,128,0.2,i,0.96,9,143
CC1(C)OC(=O)C(=CNC(=O)c2c(F)cccc2F)C(=O)O1,5,97,·,i,1,·,·
CN(C1CC(C)(C)NC(C)(C)C1)S(=O)(=O)CC12CCC(CC1=O)C2(C)C (stereo unspecified),·,96,·,i,0.92,·,·
Cc1cccc(C2=NC(C(F)(F)F)(C(F)(F)F)c3c(n(-c4ccc(F)cc4)c(=O)[nH]c3=O)N2)c1,-12,99,-1.6,i,1,0,92
COc1ccc(-n2cc(-c3ccc(OC(F)F)cc3)[n+]3c2CCCCC3)cc1,-3,93,·,i,0.97,44,90
COc1ccc(-c2nc(N)ncc2Oc2ccccc2Br)c(O)c1,3,99,1.9,i,0.87,-64,118
COc1cccc(N(C(=O)c2cnccn2)C(C(=O)NC2CCCCC2)c2ccc(Cl)cc2)c1 (stereo unspecified),-10,107,0.0,i,0.98,-31,180
CC1(C)NC(=O)N(CC(=O)OCC(=O)Nc2cccc(F)c2)C1=O,-7,106,-0.3,i,1,-30,162
COc1ccccc1NC(=S)N(CCc1ccc(OC)c(OC)c1)Cc1ccccn1,-2,95,·,i,0.99,-60,89
COc1ccc(C(=O)C[n+]2ccc3c(c2)nc(-c2ccccc2)n3C)cc1,-11,105,-0.6,i,0.97,38,108
Cc1cccc(C)c1NC(=S)N/N=C/c1ccccc1C(=O)O,·,125,·,i,1,·,·
O=C(N/N=C/c1cccnc1)c1ccc(Cn2cc([N+](=O)[O-])cn2)o1,0,102,·,i,0.88,·,·
O=C1C2Sc3[nH]c(=O)sc3C(c3ccccc3)C2C(=O)N1c1ccc(Cl)cc1 (stereo unspecified),2,98,0.4,i,1.2,-34,184
CCCn1c(SCC(=O)Nc2ccc3c(c2)OCCO3)nnc1-c1ccco1,-4,99,-0.3,i,0.93,-174,85
O=[N+]([O-])c1cccc(NC(=S)NCCc2ccccc2)c1,-6,98,0.2,i,1,·,·
COc1ccc(C2(CNC(=O)c3cccs3)CCOCC2)cc1,-2,105,·,i,1,·,·
O=C(c1ccc2c(c1)OCO2)N1CCC2(CC1)Oc1ccc(F)cc1C(=O)C21CC(c2cccnc2)=NO1 (stereo unspecified),·,101,·,i,0.65,·,·
Cc1c(N)c(C(C)(C)C)cc(C(C)(C)C)c1[N+](=O)[O-],-10,102,3.0,i,0.96,17,78
COC(=O)CCC(=O)Nc1cccc(C(=O)Nc2cccc(Cl)c2)c1,2,98,-1.6,i,0.91,4,74
NC(=O)C1(NC(=O)[C@@H]2CC3(CC(c4cccc(NC(=O)[C@@H]5CCC(=O)N5)c4)=NO3)CN2C(=O)Cc2ccc(Cl)cc2)CC1 (stereo partly specified),-17,99,-1.8,i,0.96,27,153
O=C(CN1CCN(c2ccccn2)CC1)NCc1cccs1,-5,102,-1.7,i,1,23,98
COc1cc2c(cc1OC)CN(CC(=O)NC(=O)NC(C)(C)C)CC2,10,101,·,i,0.9,·,·
Cc1ccc(-c2ccc(CCC(=O)O)n2NC(=O)c2ccc([N+](=O)[O-])cc2)cc1,2,105,·,i,0.95,·,·
Cc1cc(N2CCCC(C(=O)Nc3cccc4ccccc34)C2)n2ncnc2n1 (stereo unspecified),0,100,·,i,0.87,-23,146
Clc1ccc(OCCn2ccnc2)c2ccccc12,-1,90,0.4,i,0.98,-33,105
O=C(Nc1ccc(S(=O)(=O)N2CCOCC2)cc1)c1cccs1,-5,99,-1.8,i,1,-322,57
COc1ccc(C[C@H]2CN3C(=NC[C@@H]3C)N2CCNC(=O)CCC2CCCCC2)cc1,-5,99,·,i,0.83,·,·
CCOc1ccc(/C=C2\SC(=S)N(CC(=O)N(CCO)C(C)(C)C)C2=O)cc1,3,102,·,i,1.1,·,·
Cn1cc(C(=O)NCc2ccc(F)cc2)cn1,-8,120,·,i,1,17,51
Cc1ccc(SCc2ccc(C(=O)Nc3cccnc3)cc2)cc1,-7,109,2.3,i,0.92,-10,103
C/C(=N\N=C(N)N)c1ccc(Cl)cc1Cl,-8,104,·,i,0.8,14,119
CCN(CC)C(=O)CSc1nnc(-c2ccccc2)c(-c2ccccc2)n1,-13,96,1.3,i,0.98,13,92
CCN(CC)c1ccc(NC(=O)c2cccnc2)c(C)c1,-3,120,-1.6,i,0.9,-60,115
NC1=NC[C@H](Cc2ccc(O)cc2)N1CC1CCCCC1,·,92,·,i,0.81,·,·
CCC(=O)NCCc1cc2ccc(C)c(C)c2[nH]c1=O,7,106,-2.1,i,0.93,-10,124
O=S(=O)(NC1CCCCC1)c1ccc(S(=O)(=O)N2CCN3CCCC3C2)cc1 (stereo unspecified),-3,102,0.9,i,0.81,·,·
Cc1nc(N)sc1C(=O)N/N=C/c1ccc([N+](=O)[O-])cc1,·,101,·,i,1,·,·
Cc1ccc(-c2nc(NCc3ccco3)c3ccccc3n2)cc1,-11,149,0.3,i,0.98,11,80
Cc1sc2ncnc(N3CCC(C)CC3)c2c1C,0,104,0.2,i,0.9,-40,165
Cc1ccc2cc(CN(Cc3ccco3)C(=S)NCC3CCCO3)c(=O)[nH]c2c1C (stereo unspecified),-1,109,0.1,i,0.93,8,97
Fc1ccc(-c2nnc(CN3CCC(c4nc5ccccc5s4)CC3)o2)cc1,-19,97,-0.4,i,0.93,·,·
CCCCC1=NN(C(=O)c2cocc2C)C(O)(C(F)(F)F)C1 (stereo unspecified),-8,101,-1.0,i,0.89,7,103
O=C(OCc1ccccn1)c1ccc(COc2ccccc2Cl)o1,-1,110,-0.1,i,0.92,28,172
O=C(NCc1ccc(F)cc1)C(Cc1ccccc1)n1cccc1 (stereo unspecified),·,103,·,i,1,·,·

# Brought forward from above: 7 entries, followed by the next part.
SMILES,PKD1 inh,RGS16-Gao HTS,GALR2 ag,HSV augment,HSV augment primary fold,Insulin prom inh,Insulin prom inh cell count
Cc1ccc(-c2nc(NCc3ccco3)c3ccccc3n2)cc1,-11,149,0.3,i,0.98,11,80
Cc1sc2ncnc(N3CCC(C)CC3)c2c1C,0,104,0.2,i,0.9,-40,165
Cc1ccc2cc(CN(Cc3ccco3)C(=S)NCC3CCCO3)c(=O)[nH]c2c1C (stereo unspecified),-1,109,0.1,i,0.93,8,97
Fc1ccc(-c2nnc(CN3CCC(c4nc5ccccc5s4)CC3)o2)cc1,-19,97,-0.4,i,0.93,·,·
CCCCC1=NN(C(=O)c2cocc2C)C(O)(C(F)(F)F)C1 (stereo unspecified),-8,101,-1.0,i,0.89,7,103
O=C(OCc1ccccn1)c1ccc(COc2ccccc2Cl)o1,-1,110,-0.1,i,0.92,28,172
O=C(NCc1ccc(F)cc1)C(Cc1ccccc1)n1cccc1 (stereo unspecified),·,103,·,i,1,·,·
COCCNC(=O)Cn1cnc2c1c(=O)n(C)c(=O)n2C,0,105,-0.1,i,0.9,33,65
CCC(O)CNc1nc(-n2nc(C)cc2C)nc2sc3c(c12)CC(C)(C)OC3 (stereo unspecified),-5,94,-2.1,·,·,-12,58
Nc1nc(SCC(=O)NCc2ccco2)[nH]c(=O)c1-c1ccccc1,2,105,-3.0,i,1.1,0,17
CCS(=O)(=O)N1CCN(Cc2ccc([N+](=O)[O-])cc2)CC1,2,102,0.5,i,0.95,·,·
Cc1ccc(-n2ccc(=O)c(C(=O)O)n2)cc1,5,106,-0.1,i,1,27,96
COc1ccc(C2(C(=O)NCCN3CCOCC3)CCOCC2)cc1,5,94,-2.0,i,0.87,·,·
CSC1=C(C#N)C(c2ccccc2C)C(C#N)=C(N)N1 (stereo unspecified),2,105,-0.1,i,0.66,·,·
COc1ccc(-c2ccc(CCC(=O)O)n2NC(=O)c2ccc(O)cc2)cc1,2,100,·,i,1.2,·,·
CCOC(=O)c1cnc2c(C#N)c(C)nn2c1C,9,103,-1.3,i,0.99,-36,46
Cc1ccc2nc(C)cc(C(=O)OCC(=O)c3ccc(Cl)c([N+](=O)[O-])c3)c2c1,-7,89,-1.0,·,·,·,·
Cc1cccc(OCCC(=O)NCC(c2ccccc2)N(C)C)c1 (stereo unspecified),11,104,-0.8,i,0.79,·,·
O=C(Nc1ccc2nc(-c3cccnc3)[nH]c2c1)c1ccccc1F,-3,102,-1.4,i,0.9,53,94
O=C(C(c1ccccc1)c1ccccc1)N1CCN(c2ccccn2)CC1,12,98,·,i,0.85,26,99
O=C(O)/C=C\C(=O)Nc1ccc(N2CCN(c3ccc(Cl)cc3)CC2)cc1,-2,110,·,i,0.92,47,97
CN(C)c1cnn(-c2ccccc2)c(=O)c1Cl,-12,106,-2.4,i,1,-31,78
COc1cc2cc(CN(CCc3ccccc3C)C(=S)NCCCN3CCOCC3)c(=O)[nH]c2cc1OC,1,101,·,i,0.98,·,·
COc1ccc(-n2cc(CNCCc3cscn3)c(-c3ccccc3Cl)n2)cc1,4,104,·,i,0.83,·,·
O=C(NNC(=S)Nc1ccc(Cl)cc1Cl)C1CC1,-2,102,-0.6,i,1,17,93
O=C(Nc1ccc2c(c1)OCCO2)C1CCN(C(=O)c2ccc(F)cc2)CC1,9,104,2.6,i,0.96,45,26
COc1ccc(N2CCN(C(=O)c3nc4nc(C)cc(C)n4n3)CC2)cc1,4,108,·,i,0.93,2,151
CCN(Cc1ccccc1)Cc1nnnn1Cc1ccccc1,5,103,·,i,0.86,-10,76
Cc1ccc(NC(=O)C(c2ccc(Cl)cc2)N2CCOCC2)cc1 (stereo unspecified),-2,101,·,i,0.93,-28,119
CCN1CCN(CC(O)COCc2ccccc2)CC1 (stereo unspecified),-3,100,-0.2,i,0.93,·,·
O=C(O)C(Cc1ccccc1-c1ccccc1)C(=O)O,·,89,·,i,0.91,·,·
N#Cc1c(N)sc2c1CCN(CCc1ccccc1)C2,-2,102,-0.4,i,1,i,68
CC(=O)N/C(=C\c1ccccc1)C(=O)Nc1ccc(O)cc1,2,104,·,i,1.1,13,57
CCc1cccc(NC(=O)CN(C)S(=O)(=O)c2cccc3nsnc23)c1,-6,100,-1.8,i,0.99,-14,96
CC1=C(C(=O)OC2CCCCC2)C(c2ccc(C)o2)C2=C(CC(C)(C)CC2=O)N1 (stereo unspecified),-6,160,-1.0,i,0.83,-7,194
O=C(NC1CCCCC1)c1cc(Cl)nc2ccccc12,-1,16,-0.1,i,1,-12,72
